VDR inhibitor: Inhibitors of the vitamin D receptor (VDR): qHTS | Vitamin D3 receptor (Homo sapiens), P11473 | VDR-SRC2-3 peptide fluorescence polarization, 2 h | Potency, µM, inactives show max response, negative = inhibition, hits mostly inhibitors | 0.93% of 400,000 active | AID 504847, 2011; active = well fitted inhibition curve with a large enough effect; inconclusive = small, poorly fitted or top-dose-only effect, or another doubt; inactive = no such curve, though single readings can be large or run the other way; also: series mostly up to about 120 µM
Target sequence (P11473 whole entry, looked up): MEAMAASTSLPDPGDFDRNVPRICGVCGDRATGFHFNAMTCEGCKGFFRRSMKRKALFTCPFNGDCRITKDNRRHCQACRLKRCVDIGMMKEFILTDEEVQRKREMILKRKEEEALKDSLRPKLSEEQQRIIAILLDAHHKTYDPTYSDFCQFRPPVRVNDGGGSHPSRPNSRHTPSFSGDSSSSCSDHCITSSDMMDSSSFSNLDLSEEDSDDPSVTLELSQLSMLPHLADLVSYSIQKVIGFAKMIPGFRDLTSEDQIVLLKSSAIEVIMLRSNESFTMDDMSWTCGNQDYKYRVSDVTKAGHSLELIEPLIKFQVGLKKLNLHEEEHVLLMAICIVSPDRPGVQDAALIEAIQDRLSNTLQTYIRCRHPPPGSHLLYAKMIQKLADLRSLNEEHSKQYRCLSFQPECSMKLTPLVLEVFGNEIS
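The screen uses fluorescence polarization to detect compounds that interfere with recruitment of the SRC2-3 coactivator peptide to VDR; plates are read after 2 h at room temperature.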
Starred values were filed as active, the others as inactive; ? = inconclusive; & = joins results of further samples. % is scaled to controls: 0 for no effect and ±100 for the full control effect; potency is read from the fitted curve at half-maximal effect.

VDR inhibitor | canonical_smiles
-8% | COc1ccc(C(=O)NNC(=O)c2cccc(F)c2)cc1
? | O=[N+]([O-])c1ccc(CN2CCN(c3nc4ccccc4s3)CC2)cc1
4% | COc1ccc(S(=O)(=O)N2CCCCCC2)cc1C(=O)OCC(=O)NC1CCS(=O)(=O)C1 (stereo not drawn)
-15% | c1ccc(-c2nnc(SCc3nnc(-c4cccs4)o3)o2)cc1
-2% | CCc1ccc(OCC(=O)Nc2ccc(-c3cc4ccccc4oc3=O)c(OC)c2)cc1
6% | CC(=O)Nc1ccc(S(=O)(=O)NCc2cn3c(C)csc3n2)cc1
2% | COc1ccc2sc(N(Cc3cccnc3)C(=O)COc3ccccc3)nc2c1
-10% | Cc1ccc(OCC(=O)Nc2cccc(S(=O)(=O)N3CCOCC3)c2)c([N+](=O)[O-])n1
-11% | Cc1ccc(S(=O)(=O)Nc2c(C)n(C)n(-c3ccccc3)c2=O)c(C)c1
-29% | CCCCN(C(=O)c1ccc(N2CCCC2=O)cc1)c1c(N)n(CCC)c(=O)[nH]c1=O
-12% | COc1ccc(CNC(=O)C2CCN(S(=O)(=O)c3ccc(-c4nn[nH]n4)cc3)CC2)cc1
-6% | O=C(Nc1c(F)cccc1F)C1CCN(C(=O)c2cccs2)CC1
-2% | O=C(CSc1cn(CC(=O)N2CCOCC2)c2ccccc12)Nc1ccccc1F
-12% | CCC(=O)N(c1nnc(SCC(=O)c2ccc[nH]2)s1)C1CC1
-1% | CC(=O)c1c(C)[nH]c(C(=O)CN2C(=O)NC(CCc3ccccc3)C2=O)c1C (stereo not drawn)
0% | Cc1snc(SCC(=O)c2ccc(F)cc2)c1C#N
14% | CC(CCc1ccccc1)NC(=O)Cn1ncc2c3ccccc3n(Cc3cccc(Cl)c3)c2c1=O (stereo not drawn)
9% | CCNc1c(NC(=O)c2cc(OCC)c(OCC)c(OCC)c2)c(=O)oc2ccccc12
-4% | O=C(CSc1ncn[nH]1)NCCCc1ccccc1
3% | Cc1cccc(-n2c(C)n[nH]c2=S)c1
0% | COc1cc2c(C(=O)NC3CCCCCC3)cn(C)c(=O)c2cc1OC
-3% | CC1Cc2ccccc2N1Cc1nc2scc(-c3cccs3)c2c(=O)[nH]1 (stereo not drawn)
-4% | COc1ccc(C2=NO[C@@H]3C(=O)N(Cc4ccccc4)C(=O)[C@H]23)c(OC)c1
-2% | OC(CNCc1ccco1)Cn1c2ccc(Br)cc2c2cc(Br)ccc21 (stereo not drawn)
5% | Cc1ccc(C(=O)c2c3ccc(C(F)(F)F)cc3[n+]([O-])n2CCCN)cc1
-6% | Nc1cc(=O)[nH]c(SCc2nc3ccccc3n2Cc2ccccc2)n1
-3% | Cc1nc2ncnn2c(C)c1CCC(=O)N1CCN(c2ccccn2)CC1
12% | Cc1nn(CC#N)c(=O)n1-c1ccc(F)cc1
-9% | COC(=O)/C=C1/SC(=NC(=O)c2ccc(F)cc2)NC1=O
-17% | Cc1nnsc1C(=O)NC1CCCc2c1cnn2-c1ccc(F)cc1F (stereo not drawn)
19% | COc1ccc(N2CCN(C(c3cccs3)C(C)NS(C)(=O)=O)CC2)cc1 (stereo not drawn)
19% | COC(=O)CN(c1nc(C)cc(OC)n1)S(=O)(=O)c1ccc(C)cc1
-7% | O=[N+]([O-])c1cc(C(F)(F)F)ccc1NCCc1c[nH]c2ccc(O)cc12
0% | COc1ccc(CN2CCN(S(=O)(=O)c3ccccc3)CC2)cc1Br
? | Cc1ccccc1C(C(=O)NC1CCCCC1)N(C(=O)c1ccccn1)c1cccnc1 (stereo not drawn)
3% | CCOc1ccccc1C(=O)Nc1nnc(SCC(=O)Nc2cc(C)on2)s1
-4% | Cc1ccc(C(=O)N=c2sccn2C)cc1S(=O)(=O)N1CCOCC1
-21% | CCOc1ccc(-c2nnc(SCC(=O)NCc3ccc(C)cc3)nc2-c2ccc(OCC)cc2)cc1
8% | Cc1nc2ncnn2c(N2CCCC(C(=O)Nc3ccccc3Br)C2)c1C (stereo not drawn)
-8% | C[C@H]1COC(=O)[C@H](Cc2ccc(F)cc2)CC/C=C/C[C@@H](CC(=O)N(CCO)Cc2ccccc2)C(=O)N1
16% | Clc1ccc2nc(CSc3nnc4ccccn34)cn2c1
6% | Cc1ccc(N2CC(C(=O)NCCN3CCOCC3)CC2=O)cc1C (stereo not drawn)
-12% | COc1ccc(C2c3ccc(O)cc3Oc3ncn(CCN4CCOCC4)c(=N)c32)cc1 (stereo not drawn)
5% | COc1ccc(C2NC(=O)NC(C)=C2C(=O)Nc2cccc(C)c2C)cc1 (stereo not drawn)
15% | Cc1cccc(N(CC(=O)NCc2ccc3c(c2)OCO3)C(=O)CCC(=O)Nc2ccccn2)c1
-3% | O=C(CN1CCN(Cc2ccccc2)C1=O)NCCCN1CCOCC1
-1% | CCOc1cc(N2CCCC2)ccc1[N+](=O)[O-]
-3% | COc1ccc(N(CN2C(=O)C3CC=CCC3C2=O)C(=O)c2ccco2)cc1 (stereo not drawn)
-2%&-9% | COc1cc(OC)c2ccc(=O)oc2c1C(CCN1CCN(c2ccccc2)CC1)c1ccc2c(c1)OCO2 (stereo not drawn)
-3% | Cc1ccc(C(C)C)cc1C(=O)CC1(O)C(=O)N(C)c2ccccc21 (stereo not drawn)
3% | CCCc1cc(C(=O)Nc2cc(C)ccc2O)no1
-3% | O=C(O)c1cccc(-c2ccc(/C=N/n3cnnc3)o2)c1
4% | CCn1c(=N)c(S(=O)(=O)c2ccc(F)cc2)cc2c(=O)n3ccccc3nc21
0% | NNC(=O)c1ccc(S(=O)(=O)N2CCc3ccccc32)cc1
9% | Cc1cc(OCC(=O)NC2CC2)c2c(C)c(C)c(=O)oc2c1
-20% | N#C/C(=C(/O)COc1ccccc1)c1nc2ccccc2s1
11% | CC1CC(C)CN(C(=O)COC(=O)CCc2nc3ccccc3c(=O)[nH]2)C1 (stereo not drawn)
-5% | CC(Sc1n[nH]c(-c2cccs2)n1)C(=O)Nc1ccccc1F (stereo not drawn)
-5% | CC1CCN(c2oc(Cc3cccc4ccccc34)nc2C#N)CC1
-5% | C[C@@H]1CN([C@@H](C)CO)C(=O)c2cc(N(C)C)ccc2O[C@@H]1CN(C)Cc1ccncc1

The list goes on.
VDR inhibitor | canonical_smiles
0% | COc1ccccc1Cn1nnc2c(=O)[nH]c(C3CCN(C(=O)c4ccc(F)cc4)CC3)nc21
-11% | O=S1c2ccccc2Sc2ccccc21
-3% | COc1ccc(N(C(=O)c2snc(C(N)=O)c2N)C(C(=O)NC2CCCCC2)c2ccc(F)cc2)c(OC)c1 (stereo not drawn)
11% | COc1ccc(CNC(=O)c2ccc(S(=O)(=O)N3CCCC3)cc2)cc1OC
10% | Cc1ccc(N=Nc2ccc3ccccc3c2O)cc1
-3% | CCc1ccccc1-n1nnnc1SCC(=O)Nc1cc(C)on1
22% | Clc1cccc(Cl)c1COc1ccncc1
12% | Cc1cccc(CCNS(=O)(=O)c2ccc3c(c2)NC(=O)CS3)c1
-22% | CCOc1ccc2nc(NC(=O)CSc3nc4c(c(=O)n(C)c(=O)n4C)n3C(C)C)sc2c1
4% | C#CCSc1cc(C(F)(F)F)nc(-c2ccccn2)n1
5% | O=C(NCC1CCCN(Cc2cccc(OCCO)c2)C1)c1ccc(F)cc1 (stereo not drawn)
-4% | N#Cc1c(-c2ccc(F)cc2)ccnc1N1CCOCC1
-11% | COc1cccc(-c2nc(C(=O)NCC3CCCO3)cc3c2[nH]c2ccccc23)c1 (stereo not drawn)
11% | O=C(CCC(=O)N1CCN(c2ccccc2F)CC1)N1CCN(c2ccc(F)cc2)CC1
-25% | CCOC(=O)c1c(-c2cccc([N+](=O)[O-])c2)csc1N
-6% | Cc1ccc(C(=O)NC2(C(F)(F)F)N=C(c3ccccc3)N(Cc3ccccc3)C2=O)cc1 (stereo not drawn)
-2% | COc1cc(OC)cc(-c2c(-c3cccs3)c3cc(-c4cccc5[nH]ccc45)ccc3n2C)c1
-23% | CC1CCN(S(=O)(=O)c2ccc(-c3nnc(SCc4cccnc4)o3)cc2)CC1
-12% | CN(Cc1cccs1)C(=O)C1CCN(S(=O)(=O)c2ccccc2)CC1
-12% | COc1ccccc1NC(=S)N(Cc1ccccc1)Cc1ccccn1
-16% | Cc1c(NC(=O)COc2cccc(F)c2)c(=O)n(-c2ccccc2)n1C
20% | CC(O)[C@@H](NC(=O)C1CCC(CNC(=O)[C@H](Cc2ccccc2)NC(=O)OC(C)(C)C)CC1)C(=O)O (stereo partly drawn)
9%&-14% | NS(=O)(=O)c1cc(C2(O)NC(=O)c3ccccc32)ccc1Cl (stereo not drawn)
-13% | Cc1cccc(C(=O)Nc2sc3c(c2C(=O)NCc2ccco2)CCCC3)c1
6% | COc1ccc(CNC2c3ccccc3-c3ccccc32)cc1OC
11% | O=C(CCCn1c(SCC(=O)c2ccc(Cl)cc2)nc2ccccc2c1=O)NCc1ccco1
-6% | Cc1ccc(OCCCC(=O)N(C)CC(=O)Nc2ccccc2Br)cc1
5% | CCOc1cccc(C2CC(=O)Nc3cc(OC)c(OC)cc32)c1 (stereo not drawn)
-18% | CC1CCc2[nH]c3ccc(C(=O)N(C)CC(=O)Nc4ccccc4C(F)(F)F)cc3c2C1 (stereo not drawn)
? | CCCCCCSc1nc(O)c(C2OC(=O)c3c2ccc(OC)c3OC)c(=O)n1CC (stereo not drawn)
-8% | CCN1C(=O)[C@H]2[C@@H](c3ccc(-c4cccc(Cl)c4)cc3)N[C@@](CC(C)C)(C(=O)OC)[C@H]2C1=O
? | CCOc1cc(/C=C2/C(=O)N(c3ccccc3)N=C2C)ccc1OC(=O)c1cccs1
-12% | CCC(c1nnnn1C1CCCC1)N(Cc1cccs1)Cc1cc2cccc(C)c2[nH]c1=O (stereo not drawn)
0% | COc1ccc(/C=N/n2c(SC)nnc2-c2ccccc2)c(OC)c1OC
-16% | COc1cc2c(cc1OC)CN(C(=O)c1ccc3nc[nH]c3c1)CC2
-13% | CC(C)=CCC/C(C)=C/Cc1c(O)ccc(C(=O)/C=C/c2ccc(O)cc2)c1O
6% | NC(=O)c1cc(NC(=O)c2cc(Br)c(Br)s2)cc(C(N)=O)c1
1% | COC(=O)c1ccc(C(=O)N(Cc2ccccc2)c2ccccc2)cc1
16% | O=[N+]([O-])c1ccc(-c2nnc3n2CCCCC3)cc1
7% | COc1cc(/C=N/Nc2ccc(C(=O)O)cc2)ccc1O
? | CCOC(=O)N1CCN(c2nc3ccccn3c(=O)c2C=O)CC1
6% | CCOc1ccccc1CN1CCN(S(=O)(=O)CC)CC1
-6% | c1ccc(-c2csc(Nc3cccnc3)n2)cc1
18% | CCC(C(=O)N1CCN(c2cc(Cl)ccc2C)CC1)n1nc(C)c2sc3ccccc3c2c1=O (stereo not drawn)
12% | CC1(CCc2ccccc2)NC(=O)N(Cc2cc([N+](=O)[O-])cc3c2OCOC3)C1=O (stereo not drawn)
-8% | Cc1sc2nc(C(C)C)nc(SCC(=O)N3c4ccccc4CC3C)c2c1C (stereo not drawn)
14% | COc1ccccc1C1(O)CC2CCC(C1)N2S(=O)(=O)c1ccc(C(C)=O)cc1 (stereo not drawn)
-11% | COc1ccc(N2CCN(C(=O)c3ccc(-c4nc5ccccc5s4)o3)CC2)cc1
0% | C[C@H](CO)N1C[C@H](C)[C@@H](CN(C)S(=O)(=O)c2ccccc2)Oc2c(NC(=O)C3CCCCC3)cccc2C1=O
13% | CCOC(=O)c1c(C)oc2nc(C)nc(NCc3ccc(OC)cc3)c12
-11% | O=C(NCc1ccccc1)C1=C[C@@H](C2CCCCC2)C[C@@H](OCCCCO)O1
-4% | N#Cc1cccc(C(c2nnnn2CCc2ccccc2)N2CCN(C3CCCCC3)CC2)c1 (stereo not drawn)
-19% | O=C(CSC1=N/C(=C/c2ccco2)C(=O)N1c1ccc(OC(F)F)cc1)NC1CCS(=O)(=O)C1 (stereo not drawn)

Structures from the list above that contain a thiophene ring, fused or not:
VDR inhibitor | canonical_smiles
-15% | c1ccc(-c2nnc(SCc3nnc(-c4cccs4)o3)o2)cc1
-6% | O=C(Nc1c(F)cccc1F)C1CCN(C(=O)c2cccs2)CC1
-3% | CC1Cc2ccccc2N1Cc1nc2scc(-c3cccs3)c2c(=O)[nH]1 (stereo not drawn)
19% | COc1ccc(N2CCN(C(c3cccs3)C(C)NS(C)(=O)=O)CC2)cc1 (stereo not drawn)
-5% | CC(Sc1n[nH]c(-c2cccs2)n1)C(=O)Nc1ccccc1F (stereo not drawn)
-25% | CCOC(=O)c1c(-c2cccc([N+](=O)[O-])c2)csc1N
-2% | COc1cc(OC)cc(-c2c(-c3cccs3)c3cc(-c4cccc5[nH]ccc45)ccc3n2C)c1
-12% | CN(Cc1cccs1)C(=O)C1CCN(S(=O)(=O)c2ccccc2)CC1
-13% | Cc1cccc(C(=O)Nc2sc3c(c2C(=O)NCc2ccco2)CCCC3)c1
? | CCOc1cc(/C=C2/C(=O)N(c3ccccc3)N=C2C)ccc1OC(=O)c1cccs1
-12% | CCC(c1nnnn1C1CCCC1)N(Cc1cccs1)Cc1cc2cccc(C)c2[nH]c1=O (stereo not drawn)
6% | NC(=O)c1cc(NC(=O)c2cc(Br)c(Br)s2)cc(C(N)=O)c1
18% | CCC(C(=O)N1CCN(c2cc(Cl)ccc2C)CC1)n1nc(C)c2sc3ccccc3c2c1=O (stereo not drawn)
-8% | Cc1sc2nc(C(C)C)nc(SCC(=O)N3c4ccccc4CC3C)c2c1C (stereo not drawn)

Source: PubChem BioAssay (National Center for Advancing Translational Sciences (NCATS))

An excerpt; rates above refer to the full screens.
